Rango release inh: qHTS Assay for Inhibitors of RanGTP induced Rango (Ran-regulated importin-beta cargo) - Importin beta complex dissociation. Snurportin-1 (Homo sapiens) + GTP-binding nuclear protein Ran (Homo sapiens) + Importin …. Biochemical FRET Rango-importin beta, RanGTP-induced dissociation. Potency, µM (series often up to 46.1 µM), for inactives: at the highest dose activity change, negative = inhibition. 0.071% of 340,000 active. AID 540253, 2011; active means falling FRET ratio curve, often poorly fitted, with flat reads before Ran was added; inconclusive means other falling curves, or compound fluorescence or quenching; inactive means flat or rising ratio curve;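 note: potency is the fitted concentration of half-maximal effect; % of control where 0% means no effect; nearly all actives have a fitted effect of over 45% in size; -100% = wells without RanGTP and RCC1; the record marks most hits as doubtful in a second field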
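Two FRET readings bracket the reaction: one 5 min after compound meets Rango–importin beta, another 45 min after RanGTP-RCC1 (0.6 uM Ran, 0.2 uM RCC1, 2 mM GTP) is added. Only the second defines inhibition.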
Rango complex inh: qHTS Assay for Inhibitors of Rango (Ran-regulated importin-beta cargo) - Importin beta complex formation. Importin subunit beta-1 (Homo sapiens), Q14974. Rango CFP/YFP FRET sensor + importin beta, 45 min. Potency, µM (series often up to 92.2 µM), inactives show at the top dose inhibition of complex formation. 0.031% of 340,000 active; active = rising FRET ratio curve, often small or poorly fitted; inconclusive = mostly compound fluorescence or quenching in the first reads; inactive = flat curves in all reads;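 note: potency is the fitted concentration of half-maximal effect; 0% = DMSO wells and 100% = buffer wells lacking importin beta; nearly all actives have a fitted effect of over 15% in size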
Target sequence (Q14974 whole entry, looked up): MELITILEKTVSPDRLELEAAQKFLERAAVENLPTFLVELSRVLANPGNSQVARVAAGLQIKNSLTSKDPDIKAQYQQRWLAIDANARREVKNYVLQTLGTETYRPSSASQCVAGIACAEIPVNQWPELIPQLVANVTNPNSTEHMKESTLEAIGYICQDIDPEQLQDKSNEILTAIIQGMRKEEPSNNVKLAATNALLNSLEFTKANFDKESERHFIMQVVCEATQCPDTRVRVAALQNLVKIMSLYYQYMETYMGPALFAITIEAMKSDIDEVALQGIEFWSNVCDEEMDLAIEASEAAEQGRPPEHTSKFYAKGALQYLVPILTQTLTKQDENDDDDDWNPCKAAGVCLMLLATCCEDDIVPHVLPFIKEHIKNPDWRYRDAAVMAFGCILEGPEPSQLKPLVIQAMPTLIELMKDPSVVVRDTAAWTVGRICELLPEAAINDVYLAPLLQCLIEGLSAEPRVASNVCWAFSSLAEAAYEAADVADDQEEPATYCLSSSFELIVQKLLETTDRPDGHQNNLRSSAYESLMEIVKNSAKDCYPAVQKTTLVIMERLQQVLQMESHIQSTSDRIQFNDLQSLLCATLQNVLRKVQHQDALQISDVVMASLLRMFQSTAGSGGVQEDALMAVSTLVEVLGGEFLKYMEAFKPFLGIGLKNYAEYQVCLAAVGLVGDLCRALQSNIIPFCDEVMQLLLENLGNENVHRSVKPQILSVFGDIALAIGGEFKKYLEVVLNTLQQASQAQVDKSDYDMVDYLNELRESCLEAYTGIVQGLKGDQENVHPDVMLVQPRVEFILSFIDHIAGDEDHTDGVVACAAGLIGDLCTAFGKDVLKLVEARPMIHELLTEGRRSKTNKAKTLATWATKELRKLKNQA
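FRET biosensor Rango (snurportin 1 IBB between N-terminal EYFP and C-terminal Cerulean), 50 nM in PBS/1 mM DTT/0.02% Tween-20/0.1% BSA, preincubated 5 min RT with compound; 0.125 microM importin beta added, 45 min RT, CFP/YFP FRET ratio read.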
miR-21 reporter: qHTS Assay for Modulators of miRNAs and/orActivators of miR-21. HeLa miR-21 FLuc reporter, luciferase, 48 h. Potency, µM (series often up to 38.3 µM), without a hit: at the top dose reporter change, positive = more light. 340,000 tested, under 10 active. AID 2288, 2010; active = well fitted rising curve with a large enough effect; inconclusive = small, poorly fitted or top-dose-only effect; inactive = no such curve, though single readings can be large or run the other way;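 note: % of control where 0% means no effect; miR-21 action dims this reporter so a rising signal means less miR-21 action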
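HeLa miR-21-FLuc reporter line, endogenous miR-21; 2000 cells/well in DMEM/10% FBS; compound titration up to ~40uM final, 48 h, 37 degree Celsius; luciferase detection reagent, 15 min lysis, CCD luminescence.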
GLA inh pH 4.5: qHTS Assay for Inhibitors of Human alpha-Galactosidase at pH 4.5. Alpha-galactosidase A (Homo sapiens), P06280. purified enzyme, 4-MU-alpha-Gal fluorescence, pH 4.5. activity change, negative = inhibition, % at 105 µM. 230,000 tested, under 10 active; inconclusive = small, poorly fitted or top-dose-only inhibition, or a rising curve; inactive = flat fitted curve, though single readings scatter; no compound was filed as active;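 note: 0% = full activity with enzyme and -100% = basal without enzyme; dose as in the result columns while the protocol names 77 µM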
Active calls of the source: *; ? = inconclusive; . = no result given; & = joins results of further samples; [ ] = another dose, or the depositor's remark. A portion of the library; rates above refer to the full screens.

SMILES | Rango release inh | Rango complex inh | miR-21 reporter | GLA inh pH 4.5
Cc1cc([N+](=O)[O-])ccc1NC(=O)C(C)[n+]1ccccc1 (stereo not drawn) | 7.5% | 0.1% | 1.7% | -4.3[21.1 µM]
O=C(Nc1nc2c(Cl)cccc2s1)C1CC1 | 14.1% | -0.1% | -15.3% | .
Cc1noc(/C=C/Nc2ccc(F)cc2F)c1[N+](=O)[O-] | ? | ? | -38.5% | -3.4
Cc1ccc(NC(=O)CN(C)C(=O)c2ccccc2OCc2c(C)noc2C)cc1 | 30.3% | 2.6% | . | .
Cc1ccc(CN2CCN(CC3CC4C=CC3C4)CC2)cc1 (stereo not drawn) | 24.3% | -1.0% | -4.4% | 2.2
CCOc1ccc(NC(=O)c2cc3cc4ccc(OC)cc4nc3o2)cc1 | -11.5% | -2.7% | -2.4% | 8.5
CCOCCCn1c(=N)c(C(N)=S)cc2c(=O)n3cccc(C)c3nc21 | ? | ? | 21.2% | -8.2
COC(=O)c1ccccc1S(=O)(=O)N1CCC(C(=O)NC2=NCCS2)CC1 | 5.8% | -3.2% | . | .
COc1ccc(CCN(C)C2CCCN(C(=O)Cn3cnnn3)C2)cc1OC (stereo not drawn) | 6.3% | -0.2% | -9.3% | .
CCOc1ccc(NC(=O)C2CCCN(c3c(CC)c(C)nc4ncnn34)C2)cc1 (stereo not drawn) | 7.6% | 1.8% | 3.2% | .
C=CCSc1nnc(-c2cccnc2)o1 | -2.5% | 1.3% | -23.4% | 5.7
CC1CCN(C(=O)COC(=O)c2nn(C)c(=O)c3ccccc23)CC1 | -5.1% | -2.8% | 0.0% | .
CCc1nc2sc3c(c2c(=O)n1CCO)CCC3 | 0.1% | 0.8% | -3.2% | .
Cc1ccc(CNS(=O)(=O)c2c(N)n(C)c(=O)n(C)c2=O)cc1 | 26.8% | 0.0% | -1.1% | .
Cc1cccc(OCC(O)Cn2c(=N)n(CCN3CCCCC3)c3ccccc32)c1 (stereo not drawn) | 6.5% | 0.0% | 9.3% | -7.2
Cc1ccccc1-c1cccc([C@@H]2C[C@H]3[C@H](CON3C)CN2C(=O)CCc2ccccc2)c1 | 0.3% | 5.2% | . | .
Cc1cccc(C(=O)Nc2nnc(S(=O)(=O)N3CCOCC3)s2)c1 | 0.9% | 0.5% | -9.5%&-17.3% | .
CCOC(=O)C1(Cc2ccccc2C)CCCN(C(=O)c2ccnn2C)C1 (stereo not drawn) | -6.1% | -1.8% | -9.8% | 5.8
Cc1cc(NC(=O)CCCn2ccc([N+](=O)[O-])n2)n(Cc2ccc(F)cc2)n1 | -11.1% | -2.2% | -6.1% | -2.0
C#CCNS(=O)(=O)c1ccc(F)cc1Br | ? | 0.4% | . | .
CN(CC(=O)NC1CCCCC1)S(=O)(=O)c1cccc2cccnc12 | 11.9% | 5.0% | -4.9% | 2.2
O=C(CCn1c(=O)oc2ccccc21)NCc1ccco1 | 8.7% | -0.1% | -1.5% | .
O=C(c1ccc2nc(-c3ccccc3)c(-c3ccccc3)nc2c1)N1CCCCC1 | 3.4% | -3.0% | 14.2% | 16.1
CCCCCCn1c(C)nc2c(c1=O)c1nc3ccccc3nc1n2/N=C/c1ccco1 | -2.7% | ? | -1.8% | 0.2
O=C(Cc1ccc(NC(=O)C2CCN(C(=O)C3CC3)CC2)cc1)Nc1cccc(C(=O)N2CCCCC2)c1 | 0.1% | 1.1% | . | .
CN(CC(=O)Nc1cccc(F)c1)C(=O)c1ccc(OCC2CCCO2)cc1 (stereo not drawn) | -3.7% | 0.3% | -1.4% | .
O=C(CC(Nc1ccccc1)c1ccccc1)C1CC1 (stereo not drawn) | 10.3% | 0.7% | -3.4% | 1.1
CCc1ccc(N2NC(=O)/C(=C/C=C/c3ccco3)C2=O)cc1 | -10.5% | -3.5% | -5.7% | -14.3
Cc1ccccc1NC(=O)C1(C)Cc2ccccc2C(=O)O1 (stereo not drawn) | 26.8% | -2.5% | -7.9% | -1.8
C/C(=N\N(Cc1ccccc1)c1ccccc1)c1cccnc1 | -8.5% | 0.5% | -1.7% | -0.6

3 records drawn at random from those above, as already listed:
SMILES | Rango release inh | Rango complex inh | miR-21 reporter | GLA inh pH 4.5
O=C(CC(Nc1ccccc1)c1ccccc1)C1CC1 (stereo not drawn) | 10.3% | 0.7% | -3.4% | 1.1
O=C(c1ccc2nc(-c3ccccc3)c(-c3ccccc3)nc2c1)N1CCCCC1 | 3.4% | -3.0% | 14.2% | 16.1
C/C(=N\N(Cc1ccccc1)c1ccccc1)c1cccnc1 | -8.5% | 0.5% | -1.7% | -0.6

(more compounds)
SMILES | Rango release inh | Rango complex inh | miR-21 reporter | GLA inh pH 4.5
COc1cc(C(C)=O)ccc1OCC(O)CN1CCN(c2ccc(C)c(C)c2)CC1 (stereo not drawn) | -19.8% | -1.7% | -4.5% | .
Cc1ccc(NC(=O)Cn2cnc3sc(C(=O)NCCN(C)C)c(C)c3c2=O)cc1Cl | . | . | -15.0% | -2.1
CCC(C)C(NC(=O)[C@@H](NC(=O)c1ccccc1F)C(C)C)C(=O)OC (stereo partly drawn) | 1.0% | 0.0% | -0.7% | 3.0
O=C(Cc1ccc(Cl)cc1)Nc1cc(Cl)ccn1 | -12.1% | -2.0% | . | .
Cc1nc(-c2ccc(S(=O)(=O)Oc3ccc(Cl)cc3Cl)s2)cs1 | -10.6% | 4.8% | 9.0% | -2.4
CC(C)NC(=O)N1CCN(c2ccncc2S(=O)(=O)N2CCOCC2)CC1 | 6.8% | -0.1% | 0.9% | 5.6
O=C(NCc1cccnc1)c1cccc(F)c1 | 1.1% | -3.9% | -4.9% | 0.3
CCCCOc1ccc(C(=O)NNC(=O)C2C3C=CC(C3)C2C(=O)O)cc1 (stereo not drawn) | -23.1% | -1.2% | 0.0% | .
N#Cc1c(-c2ccco2)cc(-c2ccccn2)nc1N | -9.6% | -7.2% | -25.2% | ?
Cc1ccc2c(c1)C=CC(C)(C)S2=O (stereo not drawn) | 4.0% | -3.4% | -5.8% | -1.7
CC(=O)Nc1nc(C)nc(-c2ccccc2OC(C)=O)n1 | ? | 1.6% | -17.2% | -9.5
Cc1ccc(-c2csc3nnc(SCc4csc(C)n4)n23)cc1 | -4.4% | -0.3% | -8.5% | -5.9
CN(C(=O)COC(=O)/C=C/c1ccc(F)cc1)c1c(N)n(Cc2ccccc2)c(=O)[nH]c1=O | -8.3% | 0.8% | . | .
CCO[C@H]1OC(C(=O)NC2CC2)=C[C@@H](c2csc3ccccc23)[C@@H]1CCCO | 10.4% | -0.6% | 7.4% | 5.5
c1ccc(CSc2nnc3ccc(-c4ccncc4)nn23)nc1 | -5.3% | 0.3% | -18.2% | -11.6
C=CCSc1nnc(NC(=O)CCN2C(=O)C3CC=CCC3C2=O)s1 (stereo not drawn) | -4.3% | -0.5% | . | .
COc1ccccc1NC(=O)CN1CCN(CC(=O)Nc2ccc3c(c2)OCO3)CC1 | -17.8% | -3.7% | 4.1% | -1.5
O=C(CSc1nccc(=O)[nH]1)NC1CCCC1 | 6.7% | -5.2% | 0.3% | .
CN(C)c1ccc(C(C[N+](=O)[O-])c2c(N)n(C)c(=O)n(C)c2=O)c(F)c1C#N (stereo not drawn) | 22.3% | 0.5% | ? | .
c1ccc(Cn2cc(-c3cccnc3)cn2)cc1 | -1.7% | 2.7% | . | .
Cc1ccc(NC2CCCN(C(=O)c3ccccc3N3CCOCC3)C2)cc1C (stereo not drawn) | 2.4% | 0.0% | -3.6% | .
Cc1nnc2sc(-c3ccc(NC(=O)CSc4ccc(Cl)cc4)cc3)nn12 | -12.2% | ? | 0.0% | 0.1
Cc1cccc2c1-c1sc(C(=O)Nc3ccccc3N3CCN(C)CC3)cc1CO2 | -9.0% | ? | 8.2% | -4.4
CC(C)CN(CCNC(=O)CN1C(=O)COc2ccc(S(=O)(=O)N3CCOCC3)cc21)CC(C)C | 2.5% | -5.0% | -5.8% | .
O=[N+]([O-])c1ccc(N2CCN(CCO)CC2)c2ncccc12 | -7.9% | 3.7% | -18.3% | -10.3
COc1cccc(NS(=O)(=O)c2ccc(S(=O)(=O)N3CCOCC3)cc2)c1 | 6.7% | -2.4% | -8.2% | 7.3
O=C(C1CCN(S(=O)(=O)c2cccc3nsnc23)CC1)N1CCCc2ccccc21 | 1.5% | 0.8% | 20.5% | -2.3
C/C(Cl)=C/Cn1c(NCCCn2ccnc2)nc2c1c(=O)[nH]c(=O)n2C | 3.4% | -2.1% | -1.1% | 4.0
CC(C)C(NS(=O)(=O)c1cccc(C(F)(F)F)c1)C(=O)O (stereo not drawn) | 19.2% | -0.3% | -2.3% | -2.9
CCN1C(=O)CC2(C[N+]3(C)CCC2CC3)C1=O (stereo not drawn) | -2.4% | -4.2% | -10.3% | -10.5
COC(=O)c1sc(C(F)(F)F)c(-c2ccccc2)c1S(=O)(=O)N1CCOCC1 | ? | -3.2% | . | .
Cc1c(C(=O)NCCN2C(=O)S/C(=C\c3cccs3)C2=O)cccc1[N+](=O)[O-] | -11.7% | -1.0% | -0.3% | 3.3
COc1ccc(N(CC(=O)NCCSC2CCCCC2)S(C)(=O)=O)c(OC)c1 | 0.3% | 0.8% | -0.6% | -3.7
O=C(Nc1cccc(-c2nc3ncccc3o2)c1)c1ccco1 | 3.1% | -1.1% | 0.6% | 0.1
COc1ccc(C2CC(c3cccs3)=NN2C(=O)CSc2nc(=O)n3cc(C)ccc3n2)cc1 (stereo not drawn) | -2.6% | -2.7% | . | .
Cc1ccc2nc(SCC(=O)N3CCCCCC3)nc(=O)n2c1 | -10.3% | 0.3% | . | .
COc1ccccc1N1C(=O)C2C3CC(c4ccccc4)C(C3)C2C1=O (stereo not drawn) | 20.7% | 1.6% | 0.0% | -1.9
COCCN(Cc1cc2cc(C)c(C)cc2nc1Cl)C(=O)N1CCOCC1 | 15.3% | 0.3% | -4.7% | 4.0
COc1ccc(/C=N/n2nnnc2N)c(OC)c1 | -16.7% | 1.1% | -32.4% | .
Cn1c(=O)c2c(Nc3ccc(F)cc3)cc(=O)n(-c3ccccc3)c2n(C)c1=O | -15.6% | -2.7% | 2.1% | -2.1
CC(=O)NS(=O)(=O)c1ccc(NC(=O)CN2C(=O)C3C4C=CC(C4)C3C2=O)cc1 (stereo not drawn) | 4.5% | 1.1% | -8.8% | 3.4
CCOCCCN(C(=O)Cn1nnc2ccccc21)C(C(=O)NCc1ccco1)c1ccncc1 (stereo not drawn) | -15.9% | -1.2% | -5.8% | 3.4
CCN1C(=O)N/C(=C/c2ccc(C)o2)C1=O | -7.7% | -0.1% | -1.1% | 2.9
COc1ccc(S(=O)(=O)NC(C)(C)C)cc1-c1nnc2c3ccccc3c(C)nn12 | -11.8% | 1.7% | -17.7%&-17.0% | 10.8
C/C(=N/N1CCN(c2ccccn2)CC1)c1cccc([N+](=O)[O-])c1 | 2.1% | 2.2% | -35.0% | -7.1
COc1ccc(CN(C)C(=O)Cc2ccc(OC)c(S(=O)(=O)N3CCOCC3)c2)cc1OC | -2.9% | -1.0% | . | .
CCCCc1nc(SCC(=O)Nc2ccc(S(N)(=O)=O)cc2)n[nH]1 | 4.0% | -1.1% | -4.5%&-3.9% | 2.0
O=[N+]([O-])c1cccc2ccc(/C=C/c3cccc(Br)c3)nc12 | 13.1% | 14.9% | -35.9% | 2.4
Cn1c(CC(=O)Nc2ccc(F)cc2)nnc1SCC(=O)NC1CCCCC1 | -14.0% | 2.7% | -0.4% | .
CC(=O)Nc1ccc(S(=O)(=O)N2CCCC(C(=O)N3CCN(c4ccccc4)CC3)C2)cc1 (stereo not drawn) | 1.9% | 0.0% | 16.5% | .
COc1cc(SC)ccc1C(=O)NC1CCCc2ccccc21 (stereo not drawn) | -1.9% | -1.5% | 3.7% | .
CCOC(=O)c1c(SC)[nH]c2c(Cl)cccc2c1=O | 2.3% | 5.0% | -5.4% | 1.7
